HPGD inh: inhibitors of human 15-hydroxyprostaglandin dehydrogenase (HPGD); Potency, µM, without a hit: at the top dose activity change, negative = inhibition, usual class: inhibitors; purified HPGD, NADH fluorescence kinetic, PGE2 substrate; AID 894; hit rate 4.3% among 150,000; P15428; active = well fitted inhibition curve with a large enough effect (not every such curve was filed as active); inconclusive = small, poorly fitted or top-dose-only effect, or another doubt; inactive = no such curve, though single readings can be large or run the other way;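 note: top concentration of the series not given in the record; plate controls included wells without enzyme; inactives centre near -10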
Target sequence (P15428 whole entry, looked up): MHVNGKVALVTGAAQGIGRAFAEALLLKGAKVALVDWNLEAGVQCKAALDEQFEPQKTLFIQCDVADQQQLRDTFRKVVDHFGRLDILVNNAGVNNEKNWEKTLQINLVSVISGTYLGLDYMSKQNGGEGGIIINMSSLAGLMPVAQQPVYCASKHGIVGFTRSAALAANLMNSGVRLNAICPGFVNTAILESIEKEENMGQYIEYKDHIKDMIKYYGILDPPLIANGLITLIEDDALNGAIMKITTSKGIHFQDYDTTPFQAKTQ
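20 nM HPGD preincubated 15 min at room temperature with compound in 50 mM Tris-HCl pH 8, 0.01% Tween 20. Started with 1 mM NAD+ and 30 uM prostaglandin E2; NADH fluorescence (360/450 nm) read 5 times over 30-s intervals, last minus first.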
The depositor's hits bear a star; ? = inconclusive; & = joins results of further samples. % is set by controls: 0 for no effect and ±100 for the full control effect; potency is the fitted concentration of half-maximal effect. An excerpt; rates above refer to the full screens.

SMILES	HPGD inh
O=C(CN1C(=O)COc2ccccc21)Nc1ccc(F)cc1	0%
OC1CCCC1	-6%
COC(=O)c1cccc(NC(=O)/C=C/c2cccc([N+](=O)[O-])c2)c1	-5%
O=C(CN1C(=O)S/C(=C\C=C\c2ccccc2)C1=O)Nc1cccc(O)c1	-23%
CCC(Oc1ccccc1)C(=O)Nc1cc(C)on1 (configuration not stated)	1%
N#Cc1c(N2C(=O)Nc3ccccc3N2O)sc2c1CCCCCC2	?
CCOC(=O)N1CCC(NC(=O)c2cn(-c3ccc(OC)cc3)c(=O)c3ccccc23)CC1	-8%
CCOC(=O)C1(C)/C(=N/Nc2ccc(Cl)cc2)C(=O)C(=O)N1c1ccccc1 (configuration not stated)	?
COc1ccccc1C1CC(c2cccs2)=Nc2ccccc2S1 (configuration not stated)	-4%
c1ccc2nc3ccccc3nc2c1	-9%
CCOC(=O)c1[nH]c(C)c(C(=O)Nc2ccc(Cl)cc2)c1C	4%
Cc1ccc(C(O)(C(=O)NN(C(=O)c2ccccc2)c2ccccc2)c2ccc(C)cc2)cc1	0%
Cc1cccc(N2CC3=C(C2=O)C(c2ccccc2)NC(=O)N3C)c1 (configuration not stated)	-7%
NC(=O)C1CC(=O)N(Cc2ccc3c(c2)OCO3)C(=Nc2ccccc2)S1 (configuration not stated)	-12%
Cc1ccc([N+](=O)[O-])cc1NC(=O)CN1CCC(C)CC1	-9%

6 consecutive compounds from above:
SMILES	HPGD inh
c1ccc2nc3ccccc3nc2c1	-9%
CCOC(=O)c1[nH]c(C)c(C(=O)Nc2ccc(Cl)cc2)c1C	4%
Cc1ccc(C(O)(C(=O)NN(C(=O)c2ccccc2)c2ccccc2)c2ccc(C)cc2)cc1	0%
Cc1cccc(N2CC3=C(C2=O)C(c2ccccc2)NC(=O)N3C)c1 (configuration not stated)	-7%
NC(=O)C1CC(=O)N(Cc2ccc3c(c2)OCO3)C(=Nc2ccccc2)S1 (configuration not stated)	-12%
Cc1ccc([N+](=O)[O-])cc1NC(=O)CN1CCC(C)CC1	-9%

The main list resumes; the 2 compounds before the break are reprinted first.
SMILES	HPGD inh
NC(=O)C1CC(=O)N(Cc2ccc3c(c2)OCO3)C(=Nc2ccccc2)S1 (configuration not stated)	-12%
Cc1ccc([N+](=O)[O-])cc1NC(=O)CN1CCC(C)CC1	-9%
CC1(C)CC(=O)C2=C(C1)OC(N)=C(C#N)C21C(=O)N(CN2CCOCC2)c2ccccc21 (configuration not stated)	-1%
N/C(=N\OC(=O)CCCN1C(=O)c2ccccc2C1=O)c1ccc(Cl)cc1	-16%
CCN(Cc1ccccc1)C(c1ccncc1)c1nnnn1C(C)(C)C (configuration not stated)	-5%
COc1cccc(-c2nc(CC(=O)O)cs2)c1OC	?
CC(C)c1ccc(NCCC(=O)c2ccc(Br)cc2)cc1	-8%
COC(=O)[C@@]1(Cc2ccc(F)cc2)[C@H]2c3cc(C(=O)N(C)C)n(Cc4ccccn4)c3C[C@H]2CN1C(=O)c1ccccc1	-8%&-10%
CCCNC(=O)c1ccccc1NC(=O)CN(c1ccccc1OCC)S(C)(=O)=O	-19%
CCC[C@@H]1C[C@@H](C(=O)NC(C(C)Cl)[C@H]2O[C@H](SC)[C@H](O)[C@@H](O)[C@H]2O)N(C)C1 (some centres not stated)	-6%
CCOc1ccc(NC(=O)CNC(=O)c2ccc(OC)c(OC)c2)cc1	-3%
S=c1[nH]ccn1-c1cccc(Cl)c1	-26%
COc1ccc(CCNC(=O)CSc2nnnn2-c2ccccc2)cc1	-5%
Nc1cc(=O)nc(SCc2ccccc2)n1Cc1ccco1	-4%
COc1cccc(Cn2c(NCc3ccco3)nc3c2c(=O)n(C)c(=O)n3C)c1	-14%
COc1nc(NCCO)nc(Nc2ccc([N+](=O)[O-])cc2)n1	20µM*
Cc1cccc(C)c1NS(=O)(=O)c1ccc(F)cc1	-3%
Cc1nn(-c2ccccc2)c(Cl)c1/C=C/C(=O)c1ccc(O)cc1	-30%
Cc1cc(C)c(S(=O)(=O)c2ccccc2C)c(N(C)C)n1	-13%
O=[N+]([O-])c1cccc(/C=C/c2nc(C=Nc3ccccc3)c(O)o2)c1	-12%
CCS(=O)(=O)N1CCc2cc(OC)c(OC)cc2C1	-15%
Cc1nn(-c2ccccn2)c(C)c1Oc1ccccc1O	14µM*
COc1ccc(S(=O)(=O)N2CC(O)CC2C(=O)OCc2nc3sc(C)c(C)c3c(=O)[nH]2)cc1 (configuration not stated)	-5%
O=C(NC1CCCC1)C(c1cccnc1)N(C(=O)c1csnn1)C1CC1 (configuration not stated)	-3%
c1ccc(-c2nccc(-c3ccc(-n4cnc5ccccc54)cc3)n2)cc1	-11%
Clc1ccc(COn2c(-c3ccc(Cl)cc3Cl)nc3ncccc32)cc1	12%
c1ccc(CNc2ncnc3ccccc23)cc1	-28%
C/C(CC(=O)Nc1ccc(N(C)C)cc1)=N\NC(=O)Cc1csc(N)n1	-13%
CCN1CCN(C(=O)NC(C(=O)NC2C(=O)N3C2SC(C)(C)C3C(=O)O)c2ccccc2)C(=O)C1=O (configuration not stated)	-7%
CCN(CC)c1ccc(NC(=O)CN2C(=O)CSc3ncccc32)c(C)c1	-7%
Cc1ccc(-c2noc(CCC(=O)N3CCN(c4cccc(C(F)(F)F)c4)CC3)n2)cc1	-11%
FC(F)(F)c1cc(C(F)(F)F)c2ccc(N/N=C/c3cccc(Cl)c3)nc2n1	-12%
CCc1nnc(NS(=O)(=O)c2ccc(NC(=S)NC(=O)c3ccccc3)cc2)s1	-12%
O=c1cc(CSc2nnc3ccccn23)c2c(ccc3ccccc32)o1	-18%
Cc1[nH]c(=O)[nH]c(=O)c1NC(=O)CSc1ncccc1-c1nc2ccccc2[nH]1	-17%
O=C1OC(c2ccc3c(c2)OCO3)N(C(=O)c2ccc(Cl)c(Cl)c2)c2ccccc21 (configuration not stated)	-23%
Cc1ccc(Cl)cc1N1CCN(C(=O)C2CCN(c3nnc(-n4cccc4)s3)CC2)CC1	-10%
CCOc1cc(/C=C2\C(=O)ON=C2C)ccc1OCc1ccccc1	7.1µM*
CC1C/C(=N\NC(=O)c2ccc(NS(=O)(=O)c3ccc(Br)cc3)cc2)CC(C)(C)C1 (configuration not stated)	-6%
COc1ccc(/C=N\n2nnc3ccccc32)cc1	-9%
Cc1cccc(CS(=O)(=O)Cc2ccc(C(=O)NCc3ccco3)o2)c1	-6%
Cc1ccc(SCc2cc(=O)[nH]c(Nc3nc(C)c4cccc(C)c4n3)n2)cc1	-16%
CCCCCCCCCCCCC1CO1 (configuration not stated)	-2%
c1ccc2c(c1)oc1c(NCC3CCCO3)ncnc12 (configuration not stated)	-28%
O=C(Nc1nnc(SCC(=O)N2CCCc3ccccc32)s1)c1ccc2ccccc2c1	?
O=C(O)CSc1nnc(-c2ccncc2)n1CCc1ccccc1	-3%
Cc1ccc(NC(=O)c2cccs2)cc1S(=O)(=O)Nc1cccc(Cl)c1	-9%
COn1c2c(c3c4nonc4ccc31)CCCC2	?
O=C(Nc1ccccc1-c1ccccc1)c1ccc(Cl)c([N+](=O)[O-])c1	-11%
O=C1C2CC=CCC2C(=O)N1Cc1ccccc1 (configuration not stated)	-5%
COc1ccc(-c2nnc3ccc(SCC(=O)N4CCCC4)nn23)cc1	-10%
Cc1ccc(CNC(=O)CCNS(=O)(=O)c2cccc3nonc23)cc1	0%
O=C(O)C1C2C=CC(O2)C1C(=O)NCc1ccc(Cl)cc1 (configuration not stated)	6%
CCOC(=O)c1sc(-c2ccc(C)cc2)c(C#N)c1C	?
CCc1nc2ccc(C(=O)NCc3ccco3)cc2nc1CC	-29%
CCOC(=O)N1CCC(Nc2c(NCCCN(CC)c3cccc(C)c3)c(=O)c2=O)CC1	?
COc1ccc(NC(=O)N2CCCC3(CCN(C(=O)c4ccco4)CC3)C2)cc1	-8%
CCCCOc1cccc(/C=N/NC(=O)c2csc(C)c2C)c1	-17%
CCC(C)NC(=O)c1cc(C)no1 (configuration not stated)	-6%
CCc1nc(-c2ccc(-c3ccc(OC)cc3)nc2OC)no1	?
CCCOc1ccc(NC(=O)CC2C(=O)N(C)C(=S)N2Cc2ccc3c(c2)OCO3)cc1 (configuration not stated)	0%
CCCOc1ccccc1NC(=O)c1ccc(N)cc1	-7%

An excerpt from above in order of their number in HPGD inh, largest number first:
smiles	HPGD inh
O=C(O)C1C2C=CC(O2)C1C(=O)NCc1ccc(Cl)cc1 (configuration not stated)	6%
Cc1ccc(CNC(=O)CCNS(=O)(=O)c2cccc3nonc23)cc1	0%
CCC(C)NC(=O)c1cc(C)no1 (configuration not stated)	-6%
CCCOc1ccccc1NC(=O)c1ccc(N)cc1	-7%
COc1ccc(NC(=O)N2CCCC3(CCN(C(=O)c4ccco4)CC3)C2)cc1	-8%
COc1ccc(-c2nnc3ccc(SCC(=O)N4CCCC4)nn23)cc1	-10%
O=C(Nc1ccccc1-c1ccccc1)c1ccc(Cl)c([N+](=O)[O-])c1	-11%

Next compounds
SMILES	HPGD inh
Cc1ccc(C2N3CC4([N+](=O)[O-])CN2CC([N+](=O)[O-])(C3)C4(C)C)cc1 (configuration not stated)	-5%
O=c1cc(O)c(-c2ccccc2)c(Cl)[nH]1	1%
COC(=O)CSc1nc(-c2ccccc2)cc(-c2ccco2)c1C#N	?
C=CCSc1nnc(Cn2c(=O)sc3ccccc32)n1C	-11%
Cc1nc2nc(-c3cccnc3)[nH]n2c(=O)c1Cc1ccccc1	2%
Cc1cc(C)c([N+](=O)[O-])cc1-c1ccc(/C=N/NC(=O)c2nonc2N)o1	-4%
CN(C)C(CNC(=O)NC1CCCCC1)c1cccnc1 (configuration not stated)	-6%
COc1ccc2c(c1OC)C(=O)OC2Nc1ccccc1S(=O)(=O)C(F)F (configuration not stated)	-15%
CC(C)[C@@H](CC(=O)N[C@@H]1CCCC[C@H]1C(=O)N[C@H](CC(=O)N[C@@H](CCC(=O)O)CC(=O)O)Cc1c[nH]c2ccccc12)NC(=O)C[C@H](CO)NC(=O)[C@@H]1CNCC[C@H]1N	-5%
Cc1ccccc1-c1nnc(-c2ccc(Cl)cc2)o1	?
O=C(NCc1ccccc1)c1csc2c1CCCCC2	8.9µM*
CCOC(=O)N1CCN(C(=O)c2ccc(N3C(=O)c4ccccc4C3=O)cc2)CC1	-14%
O=C(NC1CCCCC1)c1ccc2c(=O)n(CC3CCCO3)c(=O)[nH]c2c1 (configuration not stated)	-23%
Cc1c(C(=O)N2CCOCC2)oc2c1C(=O)CC(C)(C)C2	-8%
CCOc1ccccc1Nc1cc(C)nc2nc(C)nn12	1.6µM*
CCOc1cc(/C=N/NC(=O)CNc2cccc(C)c2)ccc1OC(=O)c1ccccc1	-15%
Cc1ccc(S(=O)(=O)N2CCC(=O)N([C@H](COCc3ccc(C(F)(F)F)cc3)Cc3ccccc3)CC2)cc1	-16%
Nc1nc(NCc2ccccc2)nc(-c2ccccc2)n1	-11%
Cc1ccc(-c2nnc3ccc(SCC(=O)NCc4ccco4)nn23)cc1	-11%
COc1ccc(CN2CCN(c3ccccn3)CC2)c(OC)c1	-4%
CCN1C(=O)N[C@@H](c2cccc(C(F)(F)F)c2)[C@@H](C(=O)OC)[C@H]1C	-7%
O=C(CCN1C(=O)C2C3C=CC(C4CC34)C2C1=O)Oc1cccc2cccnc12 (configuration not stated)	-11%
C=CCSCC(N)C(=O)O (configuration not stated)	-9%
CCN(CC)S(=O)(=O)c1ccc(NC(=O)c2ccc(Sc3nncn3C)c([N+](=O)[O-])c2)cc1	-8%
Cc1ccnc(N2CCC(C(=O)NNC(=O)c3ccccc3)CC2)n1	-13%
COC(=O)CC1COc2ccccc2N1C(=O)c1ccc(OC)cc1 (configuration not stated)	-5%
COc1cc([N+](=O)[O-])ccc1NC(=S)NCc1ccccn1	-21%
Cc1ccc(O)c(C(=O)c2cnc3c(c2)c(C)nn3-c2ccccc2)c1	?
CCC(=O)Nc1cccc(C(=O)/C=C/c2ccccc2)c1	-14%
S=C(NCc1ccccc1)NCc1ccccc1	14µM*
O=C(CN1CCCCCC1)Nc1ccc(Br)cc1	-6%
CC1CCN(c2ccc(C(=O)NCCc3ccccc3)cn2)CC1	-20%
O=C(N/N=C(/c1ccccc1)c1ccncc1)c1ccc2c(c1)OCO2	-7%
CCOc1ccc(C(=O)N2CCN(c3cccc(C)c3C)CC2)cc1	-5%
Nc1ncn(C23CC4CC(CC(C4)C2)C3)n1	-10%
O=C(N/N=C/c1ccncc1)C1C2CCCCCCC21 (configuration not stated)	-9%
CCC(C)CCCCC(=O)N[C@@H](CCN)C(=O)N[C@H](C(=O)N[C@@H](CCN)C(=O)N[C@H]1CCNC(=O)C([C@@H](C)O)NC(=O)[C@@H](CCN)NC(=O)[C@H](CCN)NC(=O)[C@H](CC(C)C)NC(=O)[C@@H](CC(C)C)NC(=O)[C@H](CCN)NC1=O)[C@@H](C)O (some centres not stated)	-5%
O=C1CC(c2ccccc2)NC(=O)N1 (configuration not stated)	-3%
CCOC(=O)c1sc(C)c2c(=O)n(CC)nnc12	-16%
Cc1nn(Cc2ccc(Cl)cc2)c(C)c1NC(=O)CSc1nc2c(c(C(F)(F)F)n1)CCc1ccccc1-2	-15%
CCOC(=O)c1oc2ccc(CNC(C)(C)C)c(Cl)c2c1C	-11%
Cc1ccc(S(=O)(=O)Nc2cc(-c3nn(C)c(=O)c4ccccc34)ccc2N2CCOCC2)cc1	?
CCNC(=O)/C=C1\NC(C)(C)Cc2c1ccc1ccccc21	-1%
C=CCn1c(SCc2nc3cc(C(F)(F)F)ccc3c(=O)[nH]2)nc2sc(CC)cc2c1=O	-20%
CCOC(=O)Cc1csc(NC(=S)NC(=O)c2cccc([N+](=O)[O-])c2)n1	-16%
CCOC(=O)c1sc(NC(C)=O)nc1C	?
CCOc1cc(/C=N/NC(=O)Cn2nc([N+](=O)[O-])cc2C)cc(Br)c1OCc1ccccc1C	-3%

Screening data: PubChem, National Center for Advancing Translational Sciences (NCATS)
